# Mtb growth = M. tuberculosis H37Rv growth inhibitors, H37Rv strain (AID 1626) | M. tuberculosis H37Rv growth inhibition; higher % means a stronger effect | inhibition, % at 10 µM, or IC50 in µM where a hit was titrated | 0.95% of 220,000 active;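 active means confirmed in a dose series; inconclusive means inhibition above 80% but not taken into the dose series; inactive means below 80% or under 30% at every dose of the series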;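 further: bacteria incubated seven days before Alamar blue readout; 0% = bacteria only wells and 100% = bacteria with antibiotic wells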
# RecA intein inh = Mtb RecA intein splicing inhibition | inhibition, %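 (about 9 µM by stock and volumes)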 | P9WHJ3 | AID 2221 | cell-free RecA intein splicing, fluorescence | 0.75% of 290,000 active; in the data active means inhibition above about 30%; inconclusive means no clear call, values can overlap the other calls;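 further: 0% = vehicle wells and 100% = reference inhibitor control wells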
# Target sequence (P9WHJ3 whole entry, looked up): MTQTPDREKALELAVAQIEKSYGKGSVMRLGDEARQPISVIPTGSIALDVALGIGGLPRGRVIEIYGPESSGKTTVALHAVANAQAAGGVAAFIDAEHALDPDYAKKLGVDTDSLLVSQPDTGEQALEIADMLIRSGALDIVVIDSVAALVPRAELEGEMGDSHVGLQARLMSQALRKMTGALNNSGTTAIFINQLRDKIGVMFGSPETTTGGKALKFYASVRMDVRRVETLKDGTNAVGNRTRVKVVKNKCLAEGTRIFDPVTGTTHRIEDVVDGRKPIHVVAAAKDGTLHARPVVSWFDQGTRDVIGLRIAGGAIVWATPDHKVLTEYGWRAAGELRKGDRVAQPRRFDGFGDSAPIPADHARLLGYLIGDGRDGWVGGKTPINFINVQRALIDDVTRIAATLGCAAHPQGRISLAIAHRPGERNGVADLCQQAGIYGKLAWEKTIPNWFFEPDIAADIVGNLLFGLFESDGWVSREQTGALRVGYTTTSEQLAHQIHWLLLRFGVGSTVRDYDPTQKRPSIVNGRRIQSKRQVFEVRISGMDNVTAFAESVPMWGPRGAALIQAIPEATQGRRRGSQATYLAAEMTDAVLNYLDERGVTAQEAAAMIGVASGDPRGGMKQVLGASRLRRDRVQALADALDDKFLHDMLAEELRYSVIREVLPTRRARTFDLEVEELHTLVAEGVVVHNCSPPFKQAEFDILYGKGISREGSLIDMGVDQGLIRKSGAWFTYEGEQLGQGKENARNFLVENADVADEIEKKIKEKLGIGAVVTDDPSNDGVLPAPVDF
# Arbovirus inh = antivirals against arbovirus infection. inhibition, % at 10 µM. arbovirus infection cell-based antiviral screen. AID 1251. 0.37% of 200,000 active;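 active means inhibition from about 30%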;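 further: bluetongue infection of BSR cells; cell survival read as ATP light after 72 h; 0% = infected wells without compound and 100% = uninfected wells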
# Mtb betalactam = beta-lactam sensitization of Mtb H37Rv; M. tuberculosis H37Rv growth with meropenem, percent inhibition; hits of this screen are not shown here; inhibition, % at 25 µM; 0.27% of 330,000 active; AID 434955;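 active means about 74% or more and at least 40 points above the plate without the antibiotic, then above 30% in a dose series; inconclusive means first-round hits that could not be retested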;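 further: growth measured after seven days incubation then overnight dye step; 0% = bacteria only wells and 100% = bacteria with antibiotic; twin plates without the antibiotic show which effects depend on it; some results filed as inactive read as strong as hits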
# YopH inh = YopH (Yersinia) phosphatase inhibition. fluorescence Ex485/Em525. inhibition, %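 (about 10 µM by stock and volumes)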. 0.16% of 140,000 active;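 active means inhibition of 50% or more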;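 further: controls were vehicle for no effect and minimum signal wells for full effect; inactives centre near -20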
# * hit, by the source's call; u = inconclusive; x = not tested or not shown. This is a subset; count on the stated rates, not on these rows.
SMILES,Mtb growth,RecA intein inh,Arbovirus inh,Mtb betalactam,YopH inh
CCS(=O)(=O)c1ccc2oc(Nc3ccc(OC)c(OC)c3)nc2c1,x,-0.4,x,4.1,x
Cc1ccnc(SCCn2c(N3CC(C)CC(C)C3)nc3c2c(=O)n(C)c(=O)n3C)n1 (stereo not given),-1.9%,1.5,-6.5,-11.6,-31.2
Cc1ccc(/C=N/NC(=O)NC2CCCCC2)o1,-6.1%,1.7,16.4,-3.3,x
COc1ccc(NC(=O)CSc2nnc(C3CC3)n2C)cc1,-0.6%,1.5,-1.1,-1.2,x
CCC(CC)c1nc(NCCC(=O)O)c2ccccc2n1,-5.6%,0.3,4.8,9.8,-9.6
CNc1ccc(S(=O)(=O)NCC(=O)NCCCc2ccccc2)cc1[N+](=O)[O-],x,-4.4,x,-1.7,x
N#C/C(=C\c1ccncc1)c1ccc(NC(N)=O)cc1,x,-6.9,x,10.1,x
Cc1ccc2c(c1)C(=O)CCCCC(=O)N2,-7.2%,2.2,x,-5.7,x
Cc1cc2c(OCC(O)CN3CCCC3)cccc2[nH]1 (stereo not given),1.1%,-0.5,-7.3,-1.1,x
CC1=CC(C)(C)N(S(=O)(=O)c2ccc(C)cc2)c2cc(C)ccc21,0.5%,9.2,-26.9,3.1,-46.7
O=C(CCc1ccccc1)n1nc(-c2ccccc2)nc1NCc1ccco1,4.1%,0.3,-0.7,-4.7,-66.0
Cc1cccc(C2c3[nH]c4ccccc4c3CCN2C(=O)c2cc(C(C)C)nc(N)n2)n1 (stereo not given),11.8%,12.2,7.6,7.4,x
CC1CCCCN1CCNC(=O)C1CCN(S(=O)(=O)N2CCCCC2)CC1 (stereo not given),-4.5%,0.0,-13.3,3.0,-34.7
Cn1cnc(S(=O)(=O)Nc2cc(-c3ccc(Cl)cc3)nn2C)c1,-8.9%,1.1,x,-16.4,x
CCC(=O)N1CCc2cc(S(=O)(=O)CCC(=O)O)ccc21,-4.9%,1.0,7.3,-0.2,-32.9
CC(C)(C)C(=O)CSc1nccc(=O)[nH]1,-0.8%,0.9,4.3,4.5,-27.3
CCOc1ccc(S(=O)(=O)Nc2ccc(C(=O)N/N=C/c3c(C)nn(-c4ccccc4)c3N3CCCC3)cc2)cc1,8.6%,1.3,3.5,0.0,-3.4
CN(C)C1=NP(N(C)C)(N(C)C)=NC(c2ccccc2)=N1,1.3%,-2.6,0.1,-6.3,-46.4
NNc1nnc2c3cc(F)ccc3n(Cc3ccccc3)c2n1,-1.3%,-1.4,x,-7.5,x
COC(=O)c1ccc(NC(=O)C(=O)N2CCN(C(=S)Nc3ccc(C)cc3)CC2)cc1,-0.8%,-2.0,15.8,-1.9,-11.3
CC(C)Cc1nnc(NS(=O)(=O)c2ccc([N+](=O)[O-])cc2)s1,x,-0.1,x,11.2,x
Cc1nn(S(=O)(=O)c2ccccc2)c(C)c1S(=O)(=O)N1CCOCC1,x,0.5,x,-9.3,x
O=C(NCCC(=O)N1CCN(S(=O)(=O)c2ccccc2)CC1)c1ccc(Br)cc1,x,-0.2,x,-13.9,x
Nc1nc(N2CCN(C(=O)c3ccco3)CC2)nc2ccc(Br)cc12,10.2%,2.9,12.3,32.9,x
COP(=O)(OC)C(NC(=O)c1ccc(C)cc1)C(Cl)(Cl)Cl (stereo not given),-5.7%,0.7,-1.4,-4.8,x
SMILES,Mtb growth,RecA intein inh,Arbovirus inh,Mtb betalactam,YopH inh
COc1ccc(CCN(C)Cc2c(O)ccc3cc(Br)ccc23)cc1OC,x,3.0,x,45.6,x
CC(C)CN(C1CCS(=O)(=O)C1)S(=O)(=O)c1ccc2ccccc2c1 (stereo not given),x,-1.1,x,2.7,x
CCCCN1C[C@H](Cc2ccccc2)[C@@H](CC(=O)NCc2ccc(OC)cc2)C1=O,x,3.7,x,-17.2,x
Clc1cccc(-c2ccc(C=Nc3ccc(N4CCOCC4)cc3)o2)c1,32.1%,-5.1,-17.4,-5.0,-4.9
O=C(COC(=O)c1cccc(Cl)c1)Nc1cc(Cl)ccc1Oc1ccccc1,0.2%,-0.5,0.2,-1.6,-16.1
Cn1c(SCC(=O)c2ccccc2)ncc(C(=O)Nc2ccccc2)c1=O,x,5.6,x,3.9,x
CCOc1cc(C=C(C#N)C#N)ccc1Oc1ccc([N+](=O)[O-])cn1,9.1%,5.6,-4.2,0.7,x
CCc1ccc(/C=C2/SC(=S)N(CC(=O)Nc3nc4ccccc4s3)C2=O)cc1,-2.6%,-1.1,2.0,-10.2,-18.1
CC(C)OC(=O)CCC1(C(=O)O)CCC(=O)NC1 (stereo not given),-7.1%,-0.5,0.9,-3.0,-36.3
CC(=O)c1ccccc1NS(=O)(=O)c1c(C)nn(-c2ccccc2)c1C,-4.5%,4.9,7.7,-11.0,4.6
O=[N+]([O-])c1cccc(NN=Nc2ccccc2)c1,x,11.0,x,57.5,x
COc1ccc(C2=NS(=O)(=O)N(C)C(C(=O)NCc3ccc4c(c3)OCO4)=C2)cc1,x,3.1,x,-0.8,x
COc1cc(OC)cc(C(=O)NCCNC(=O)c2ccccn2)c1,x,0.9,x,5.9,x
CCOCCCNC(=S)NCCNc1nc2c(C)cccc2cc1C#N,4.7%,-12.4,30.5*,-0.2,-30.9
Cc1ccccc1N1CCN(S(=O)(=O)c2nnc(NC(=O)c3ccco3)s2)CC1,x,2.6,x,-0.3,x
CCCc1nccn1S(=O)(=O)c1cc(OC)ccc1OC,-23.9%,1.4,1.1,2.3,-9.4
Cc1ccc(S(=O)(=O)N2CCC(C(=O)NNC(=O)c3ccccc3)CC2)cc1,0.7%,1.3,9.0,-3.5,x
O=C(NCCN1CCCCC1)c1ccc(/C=N/O)nc1,x,0.7,x,4.0,x
CCc1ccc(OCC(=O)Nc2nnc(C3CCCC3)s2)cc1,x,4.2,x,7.9,x
Cn1c(CNC(=O)c2ccco2)nnc1SCC(=O)Nc1ccc(Cl)cc1,x,-0.2,x,-5.2,x
O=C(Nc1cc2c3c(c1)CC(=O)N3CCC2)c1ccc(F)cc1,x,14.5,x,-4.2,x
C/C(=N\Oc1cccc(F)n1)c1ccc(Cl)cc1Cl,-12.0%,5.1,3.2,1.9,1.2
Fc1ccc(-n2nnc(-c3ccccc3Cl)n2)cc1,x,2.3,x,-0.3,x
O=C(CCS(=O)(=O)Cc1ccccc1F)NCCCN1CCCCC1,0.6%,3.3,9.9,-11.1,-56.8
COc1ccc(-c2csc(-n3cccn3)n2)cc1,x,3.3,x,5.6,x
SMILES,Mtb growth,RecA intein inh,Arbovirus inh,Mtb betalactam,YopH inh
Cc1cn(S(=O)(=O)c2ccccc2[N+](=O)[O-])cn1,1.8%,-2.0,-0.2,-0.9,x
CN1CCN(c2nc3c(c(=O)[nH]c(=O)n3C)n2Cc2ccc([N+](=O)[O-])cc2)CC1,x,2.7,x,-0.4,x
CCS(=O)(=O)c1ncc(Cl)c(C(=O)Nc2ccc(S(=O)(=O)N3CCCC(C)C3)cc2)n1 (stereo not given),x,12.0,x,-0.2,x
Cc1cccc(N(C)S(=O)(=O)c2ccc3c(c2)CCC(=O)N3)c1,-1.9%,-0.6,-0.8,u,-47.5
Cc1cc(C)c2c(C)c(C(=O)NCc3ccncc3)oc2c1,5.6%,x,-9.2,4.0,-23.2
O=[N+]([O-])c1ccc(N2CCN(S(=O)(=O)c3ccc(Cl)cc3)CC2)cc1NCc1cccnc1,8.7%,-3.3,2.6,-1.6,-19.5
COc1ccc(-n2ncc3c(N4CCC(C(N)=O)CC4)ncnc32)cc1,-6.5%,4.8,-5.9,4.6,-45.0
COc1cc(/C=C2\CC/C(=C\c3ccc(OCCO)c(OC)c3)C2=O)ccc1OCCO,-1.8%,-1.5,1.8,41.2,x
O=C(CNCC1CCCO1)Nc1ccc(N2CCCCCC2)cc1 (stereo not given),-10.3%,-8.7,5.7,9.3,-23.4
CC(C)NC(=O)c1ccc(-c2cccc(C(F)(F)F)c2)o1,3.0%,0.0,0.6,7.8,-12.2
Cc1nc2ccc(OC(=O)c3ccccc3)cc2s1,x,2.6,x,92.6,x
CC(O)CNc1nc(Cl)c(C#N)s1 (stereo not given),3.6%,-1.1,2.6,-0.7,x
COC(=O)c1cc2c(C)nn(C)c2s1,2.1%,-2.3,x,-1.6,x
Cc1c(C)c2c(OCC(=O)Nc3cccnc3)cc3c(c2oc1=O)CCC(C)(C)O3,x,4.5,x,1.6,x
CC(=O)Nc1ccc(NC(=O)c2ccc(NS(=O)(=O)c3cc(C(C)(C)C)cc(C)c3C)cc2)cc1,6.9%,-1.1,-2.1,0.5,-25.0
CCOc1ccccc1-c1nc2c(s1)CCc1onc(-c3ccc(OC)cc3)c1-2,-8.2%,0.5,x,-18.3,x
O=C(N/N=C/c1cc(Br)ccc1O)c1ccccc1Cl,-5.5%,9.3,-27.7,95.8,-41.1
CCOC(=O)c1c(-c2ccccc2)n(C)c2ccc(O)cc12,5.4%,-0.9,2.2,u,-7.5
CCOC(=O)N1CCN(C(=O)c2cccc(N3C(=O)NC4CC3(C)Oc3ccccc34)c2)CC1 (stereo not given),x,-7.7,x,-2.1,x
CCN(CC(=O)Nc1c(F)cccc1F)C(=O)/C=C/c1ccc2ccccc2n1,x,1.5,x,-1.6,x
CCCCn1c(O)c(/C(CC)=N/N2CCCCC2c2cccnc2)c(=O)[nH]c1=S (stereo not given),38.0%,3.1,-3.9,0.0,-8.1
COc1ccc(Nc2nc3ccc(OC)cc3s2)cc1,4.6%,-3.7,21.0,-0.5,x

# Shown with two lines to a compound: part of the list above
# Screens in order – Mtb growth	RecA intein inh	Arbovirus inh	Mtb betalactam	YopH inh
- COc1ccc(-c2csc(-n3cccn3)n2)cc1
    x	3.3	x	5.6	x
- Cc1cn(S(=O)(=O)c2ccccc2[N+](=O)[O-])cn1
    1.8%	-2.0	-0.2	-0.9	x
- CN1CCN(c2nc3c(c(=O)[nH]c(=O)n3C)n2Cc2ccc([N+](=O)[O-])cc2)CC1
    x	2.7	x	-0.4	x
- CCS(=O)(=O)c1ncc(Cl)c(C(=O)Nc2ccc(S(=O)(=O)N3CCCC(C)C3)cc2)n1 (stereo not given)
    x	12.0	x	-0.2	x
- Cc1cccc(N(C)S(=O)(=O)c2ccc3c(c2)CCC(=O)N3)c1
    -1.9%	-0.6	-0.8	u	-47.5
- Cc1cc(C)c2c(C)c(C(=O)NCc3ccncc3)oc2c1
    5.6%	x	-9.2	4.0	-23.2
- O=[N+]([O-])c1ccc(N2CCN(S(=O)(=O)c3ccc(Cl)cc3)CC2)cc1NCc1cccnc1
    8.7%	-3.3	2.6	-1.6	-19.5
- COc1ccc(-n2ncc3c(N4CCC(C(N)=O)CC4)ncnc32)cc1
    -6.5%	4.8	-5.9	4.6	-45.0
- COc1cc(/C=C2\CC/C(=C\c3ccc(OCCO)c(OC)c3)C2=O)ccc1OCCO
    -1.8%	-1.5	1.8	41.2	x
- O=C(CNCC1CCCO1)Nc1ccc(N2CCCCCC2)cc1 (stereo not given)
    -10.3%	-8.7	5.7	9.3	-23.4
- CC(C)NC(=O)c1ccc(-c2cccc(C(F)(F)F)c2)o1
    3.0%	0.0	0.6	7.8	-12.2
- Cc1nc2ccc(OC(=O)c3ccccc3)cc2s1
    x	2.6	x	92.6	x
- CC(O)CNc1nc(Cl)c(C#N)s1 (stereo not given)
    3.6%	-1.1	2.6	-0.7	x
- COC(=O)c1cc2c(C)nn(C)c2s1
    2.1%	-2.3	x	-1.6	x
- Cc1c(C)c2c(OCC(=O)Nc3cccnc3)cc3c(c2oc1=O)CCC(C)(C)O3
    x	4.5	x	1.6	x
- CC(=O)Nc1ccc(NC(=O)c2ccc(NS(=O)(=O)c3cc(C(C)(C)C)cc(C)c3C)cc2)cc1
    6.9%	-1.1	-2.1	0.5	-25.0
- CCOc1ccccc1-c1nc2c(s1)CCc1onc(-c3ccc(OC)cc3)c1-2
    -8.2%	0.5	x	-18.3	x
- O=C(N/N=C/c1cc(Br)ccc1O)c1ccccc1Cl
    -5.5%	9.3	-27.7	95.8	-41.1
- CCOC(=O)c1c(-c2ccccc2)n(C)c2ccc(O)cc12
    5.4%	-0.9	2.2	u	-7.5
- CCOC(=O)N1CCN(C(=O)c2cccc(N3C(=O)NC4CC3(C)Oc3ccccc34)c2)CC1 (stereo not given)
    x	-7.7	x	-2.1	x

# Some of the entries so far, with bars between the fields.
mol | Mtb growth | RecA intein inh | Arbovirus inh | Mtb betalactam | YopH inh
CC(=O)Nc1ccc(NC(=O)c2ccc(NS(=O)(=O)c3cc(C(C)(C)C)cc(C)c3C)cc2)cc1 | 6.9% | -1.1 | -2.1 | 0.5 | -25.0
CCOc1ccccc1-c1nc2c(s1)CCc1onc(-c3ccc(OC)cc3)c1-2 | -8.2% | 0.5 | x | -18.3 | x
